High-throughput results deposited in PubChem by ICCB-Longwood Screening Facility, Harvard Medical School.
Sa growth inh = blocks Staphylococcus aureus growth. S. aureus RN4220 growth, OD600, 20 h, 42 °C; stronger effect = lower value. relative growth, % (test concentration not listed). hit rate 0.53% among 170,000. AID 720641;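 active means growth at 42 °C up to 50% and 20 or more points under that at 30 °C, or under 10% at both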;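 further: 300 nL library stock went into each well; scaled to the means of positive and negative controls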
GIV Gai3 FP = GIV-Galpha-i interaction inhibition; P08753; Galpha-i3/FITC-GIV peptide fluorescence polarization, 90 min; stronger effect = lower value; scaled: aluminum fluoride 0%, vehicle 100%; percent of control (FP), % (no concentration beside the values); hit rate 0.42% among 210,000; AID 1224905;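 active means replicate mean at 85% of control or lower, very high polarization wells dropped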;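 further: wells of about 15 µL received 100 nL stock; the first replicate is given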
Target sequence (P08753 whole entry, looked up): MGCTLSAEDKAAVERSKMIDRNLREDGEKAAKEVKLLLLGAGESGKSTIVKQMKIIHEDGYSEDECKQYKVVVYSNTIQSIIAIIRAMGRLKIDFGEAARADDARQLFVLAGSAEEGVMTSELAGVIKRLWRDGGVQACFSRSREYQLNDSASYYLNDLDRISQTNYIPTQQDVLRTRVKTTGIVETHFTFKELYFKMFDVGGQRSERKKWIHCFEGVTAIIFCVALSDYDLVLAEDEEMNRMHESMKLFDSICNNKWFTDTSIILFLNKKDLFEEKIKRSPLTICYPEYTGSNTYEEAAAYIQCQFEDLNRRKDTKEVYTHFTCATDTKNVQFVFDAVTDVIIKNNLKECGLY
HCMV NEC inh = inhibitors of HCMV UL50-UL53 nuclear egress complex interaction; inhibition, % (no concentration beside the values); hit rate 0.15% among 190,000; HTRF UL50-UL53 interaction, normalized percent inhibition;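 active means both replicates at 50% or more, plus weaker picks with an unusually low signal ratio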;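 further: stock transfer was 100 nL into about 20 µL; 0% = negative control wells and 100% = wells with untagged competitor protein; inactives centre near -12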
Sa growth inh second temp = recorded beside Sa growth inh, whose call it bears; relative growth, %; measured here: growth at 30 °C;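 optical density after 20 h as mean of two plates; 100% = untreated growth and lower means inhibition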
An asterisk follows results filed as active; · = not tested or not shown; & = joins results of further samples.

Under each structure: Sa growth inh, Sa growth inh second temp, GIV Gai3 FP, HCMV NEC inh
1. CC1CC(C)CN(c2ccc(NC(=O)c3ccc(Cl)cc3)cc2C(=O)O)C1 (stereo unspecified)
    89, 100, 105, 39
2. Cn1nc(C(=O)NCCCN2CCN(C3CCCCC3)CC2)c2c1-c1cc(Cl)ccc1SC2
    ·, ·, 103, -27
3. OC1CCC(NCc2ccc(-c3nc4ccccc4s3)o2)CC1 (stereo unspecified)
    98, 97, ·, -69
4. Cc1cc(S(=O)(=O)Nc2cc3c(cc2C)n(C)c(=O)c(=O)n3C)ccc1F
    80, 85, 100, ·
5. CC1Oc2ccccc2N(CCC(=O)O)C1=O (stereo unspecified)
    102, 88, ·, -4
6. O=S(=O)(c1ccc(-n2cnnn2)cc1)N1CCN(c2ccccc2F)CC1
    85, 86, 95, -4
7. CCc1ccc(CNCc2cccs2)cc1
    90, 80, 101, -21
8. CN1C(=O)C(=Cc2cccn2-c2ccc(N(C)C)cc2)C(=O)N(C)C1=S
    65, 91, 109, ·
9. COc1cc2nc(CN(C)C3CCCCC3)[nH]c(=O)c2cc1OC
    93, 93, ·, -25
10. CCN(CC(=O)NC)S(=O)(=O)c1ccccc1
    98, 85, 101, -11
11. CC(NC(=O)c1cc2n(n1)CCCN(Cc1cccc(F)c1)C2=O)c1ccc2c(c1)OCCO2 (stereo unspecified)
    ·, ·, 101, -9
12. Nc1nnc(SCC(O)Cn2c3c(c4ccccc42)CCCC3)s1 (stereo unspecified)
    77, 91, 108, -5
13. CCc1c(C)sc2c1CCN(C(=O)Nc1cc(C)ccc1OC)C2c1ccc(F)cc1 (stereo unspecified)
    108, 99, 107, ·
14. COc1ccc(-c2n[nH]c(CCNC(=O)Cc3ccc(OC)c(OC)c3)n2)cc1
    ·, ·, 112, 8
15. CC(C)CN1C(=O)c2ccc(C(=O)Nc3nccs3)cc2C1=O
    93, 91, 99, -8
16. COc1cc(C2C(C(=O)Nc3ccc(Br)cn3)=C(C)NC3=C2C(=O)CC(C)(C)C3)cc(OC)c1OC (stereo unspecified)
    ·, ·, 106, -10
17. O=C(Nc1ccc(F)c(Cl)c1)C1CCN(S(=O)(=O)c2ccc3c(c2)CCCN3C(=O)C2CCC2)CC1
    101, 86, 107, ·
18. Cc1cccc(NC(=O)Cn2cc(CO)c3ccccc32)c1
    102, 68, 105, -9
19. CCN1CCN(C(=O)c2ccc3c(c2)N(Cc2cc(C)ccc2C)C(=O)c2ccccc2S3(=O)=O)CC1
    116, 90, 106, -19
20. Cc1ccccc1Cn1cc(S(=O)(=O)CC(=O)Nc2ccc3c(c2)OCCO3)c2ccccc21
    130, 80, 99, ·
21. O=C(Cn1cnc2c(nc3n2CCCCC3)c1=O)N1CCN(C2CCCCC2)CC1
    ·, ·, 98, 6
22. CC(C)c1ccc2oc(-c3cccc(NC(=O)c4ccc5c(c4)OCCO5)c3)nc2c1
    94, 89, 105, 1
23. CCOc1ccc(-c2noc(-c3cc(-c4ccccc4)n[nH]3)n2)cc1OC
    ·, ·, 98, -2
24. COc1cc(C#N)ccc1Oc1nc(CN2CCOCC2)nc2scc(-c3cccs3)c12
    113, 98, ·, -2
25. O=C(O)c1cc(N2CCCC2)ccc1NC(=O)C1CCCC1
    ·, ·, 98, -12
26. COc1cccc(CNC(=O)c2ccc3c(c2)nc2n3CCOC2)c1OC
    93, 88, 104, ·
27. COc1cccc(CC(=O)Nc2ccc3nc(Nc4cccc(C(F)(F)F)c4)cc(C)c3c2)c1
    108, 97, 100, ·
28. COc1cccc(CNC(=O)Cc2c(C(=O)O)c(C)cn2C)c1
    111, 100, 106, ·
29. O=C(O)C1CC(=O)N(c2ccccc2)C1 (stereo unspecified)
    85, 80, 103, -7
30. COc1ccc(-c2nn(C)c3sc(C(=O)N4CCN(c5cccc(C)c5C)CC4)cc23)cc1OC
    103, 91, 106, -30

Structures above containing a COOH group (5):
Under each structure: Sa growth inh, Sa growth inh second temp, GIV Gai3 FP, HCMV NEC inh
1. CC1CC(C)CN(c2ccc(NC(=O)c3ccc(Cl)cc3)cc2C(=O)O)C1 (stereo unspecified)
    89, 100, 105, 39
5. CC1Oc2ccccc2N(CCC(=O)O)C1=O (stereo unspecified)
    102, 88, ·, -4
25. O=C(O)c1cc(N2CCCC2)ccc1NC(=O)C1CCCC1
    ·, ·, 98, -12
28. COc1cccc(CNC(=O)Cc2c(C(=O)O)c(C)cn2C)c1
    111, 100, 106, ·
29. O=C(O)C1CC(=O)N(c2ccccc2)C1 (stereo unspecified)
    85, 80, 103, -7

Next entries
Under each structure: Sa growth inh, Sa growth inh second temp, GIV Gai3 FP, HCMV NEC inh
31. Cc1ccc(C2c3c(oc4ccccc4c3=O)C(=O)N2c2ccc(C)cn2)cc1 (stereo unspecified)
    91, 89, 105, -14
32. Cn1c(CO)nc2cc(N=Cc3ccc(O)cc3O)ccc21
    88, 90, 109, -4
33. Cc1ccc(C(C)C)c(OCCCCN(C)C)c1
    111, 102, ·, -12
34. O=C(COC(=O)c1cccs1)c1ccc2c(c1)OCCO2
    95, 82, 101, ·
35. CCN(CC(=O)Nc1ccc(S(=O)(=O)N2CCCC2)cc1)CC(=O)Nc1cccc(OC)c1
    99, 81, ·, -1
36. CCCN(C(=O)Nc1ccc(OC)c(OC)c1)c1nc(-c2cccc(Br)c2)cs1
    ·, ·, 104, -34
37. O=C1SC(Nc2ccc(Cl)cc2)C(=O)N1Cc1ccccc1 (stereo unspecified)
    105, 98, 112, -15
38. Cc1ccc(=O)n(S(=O)(=O)c2ccc(F)cc2F)n1
    85, 94, 102, -11
39. COc1ccc(C2CC(=O)C3=C(C2)Nc2ccccc2NC3c2cc3c(cc2[N+](=O)[O-])OCO3)cc1 (stereo unspecified)
    ·, ·, 95, -26
40. CNC(=O)c1ccc(-c2nc(CN3CCN(C(=O)Nc4ccccc4)CC3)c(C)o2)cc1
    ·, ·, 102, 7
41. CCOc1ccccc1N(CC(=O)N1CCc2ccccc2C1)S(=O)(=O)c1ccccc1
    98, 74, 106, -43
42. CN(C/C=C/c1ccc(N(C)C)cc1)CCc1ccccn1
    108, 63, 105, -31
43. COc1ccccc1NC(=O)CN1C(=O)C(C)(C)c2ccccc21
    125, 80, 108, ·
44. CCOc1ccc2c(c1)c(=O)c(C(=O)c1ccccc1)cn2Cc1ccccc1F
    95, 87, 96, -26
45. Cc1ccc(C)c(NC(=O)CSc2ncnc3nc(N4CCC(C)CC4)sc23)c1
    ·, ·, 105, -1
46. NS(=O)(=O)c1ccc(CNC(=O)CC23CC4CC(CC(Br)(C4)C2)C3)cc1
    100, 102, ·, 9
47. O=C(c1ccccc1)c1c[nH]c(C(=O)NCc2cccnc2)c1
    ·, ·, 96, -5
48. Cc1onc(-c2ccccc2Cl)c1-c1nc2ccccc2c(=O)o1
    87, 72, 101, -23
49. O=c1c2oc3ccccc3c2n(Cc2ccccc2F)c(=O)n1Cc1ccc2c(c1)OCO2
    98, 84, 103, ·
50. COc1ccc(-c2cc3ccccc3n2CC(O)CNCC2CCCO2)cc1 (stereo unspecified)
    97, 95, 102, -7&0
51. CC1CCCCN1Cc1c(O)ccc2c(=O)c(-c3cccc(Cl)c3)c(C(F)(F)F)oc12 (stereo unspecified)
    96, 95, 101, -30
52. O=C(CCc1nnc2n(CCc3ccccc3)c(=O)c3ccccc3n12)NCc1ccco1
    91, 89, 103, -13
53. CNC(=O)c1c(C)[nH]c(=S)c(C#N)c1-c1ccco1
    94, 97, ·, -46
54. CN1CCN(NC(=O)COc2cccc(C(F)(F)F)c2)CC1
    101, 105, 103, 10
55. CC1CCN(S(=O)(=O)c2cc(Br)cnc2N)CC1
    122, 88, 102, ·
56. COCCCn1c(C)nnc1SCC#N
    97, 87, 99, -17
57. CCOC(=O)c1cc(-c2ccc(C)cc2)n(CCC(=O)N2CCN(c3ccccn3)CC2)c1C
    63, 27, 100, -26
58. O=C(CCCC(=O)N1CCc2ccccc21)N1CCc2ccccc21
    105, 79, 101, ·
59. O=C(O)c1coc2ccccc12
    93, 82, 98, 2
60. COc1ccc(S(=O)(=O)N2CCC(Oc3cccc(C(F)(F)F)c3)CC2)cc1OC
    84, 89, 93, -21

Arranged by count of non-hydrogen atoms (rising): part of the list above.
Under each structure: Sa growth inh, Sa growth inh second temp, GIV Gai3 FP, HCMV NEC inh
32. Cn1c(CO)nc2cc(N=Cc3ccc(O)cc3O)ccc21
    88, 90, 109, -4
47. O=C(c1ccccc1)c1c[nH]c(C(=O)NCc2cccnc2)c1
    ·, ·, 96, -5
45. Cc1ccc(C)c(NC(=O)CSc2ncnc3nc(N4CCC(C)CC4)sc23)c1
    ·, ·, 105, -1

Only Sa growth inh, GIV Gai3 FP and Sa growth inh second temp (5 entries from above):
nr	mol	Sa growth inh	GIV Gai3 FP	Sa growth inh second temp
42	CN(C/C=C/c1ccc(N(C)C)cc1)CCc1ccccn1	108	105	63
50	COc1ccc(-c2cc3ccccc3n2CC(O)CNCC2CCCO2)cc1 (stereo unspecified)	97	102	95
44	CCOc1ccc2c(c1)c(=O)c(C(=O)c1ccccc1)cn2Cc1ccccc1F	95	96	87
51	CC1CCCCN1Cc1c(O)ccc2c(=O)c(-c3cccc(Cl)c3)c(C(F)(F)F)oc12 (stereo unspecified)	96	101	95
60	COc1ccc(S(=O)(=O)N2CCC(Oc3cccc(C(F)(F)F)c3)CC2)cc1OC	84	93	89

Individual results from the list.
compound 57 in Sa growth inh second temp reads 27
compound 60 in HCMV NEC inh reads -21

Additional structures
Under each structure: Sa growth inh, Sa growth inh second temp, GIV Gai3 FP, HCMV NEC inh
61. COc1ccccc1NC(=O)Cc1noc(COC(=O)c2ccc(Br)o2)n1
    92, 89, ·, 10
62. CC(C)c1ccc(NC(=O)C(NS(=O)(=O)c2cccc3nsnc23)C(C)C)cc1 (stereo unspecified)
    96, 83, 104, ·
63. O=S(=O)(NCC1COc2ccccc2O1)c1ccc(S(=O)(=O)c2ccccc2)s1 (stereo unspecified)
    126, 96, 97, 6
64. CSc1nc(-c2ccccc2Cl)nc2c1Cc1c(CO)cnc(C)c1O2
    108, 94, 100, ·
65. CCc1nc(-c2cc(S(=O)(=O)N3CCCCC3)c(C)s2)no1
    ·, ·, 106, -25
66. CCCCc1c(O)c2ccc(C)cc2n(CC)c1=O
    122, 102, 103, 8
67. CC(=O)N1CCN(C(=O)COc2ccc(Br)cc2)CC1
    92, 87, ·, -26
68. CS(=O)(=O)NCCSc1nnnn1-c1ccccc1
    110, 103, 103, -4
69. O=C(Nc1ccc(-c2nc3ccccc3c(=O)[nH]2)cc1)C1CCCCC1
    105, 95, 105, -15
70. O=C(Oc1cccc(-n2cnnn2)c1)c1ccccc1F
    ·, ·, 107, -38
71. O=C(O)CCCC(=O)Nc1nccs1
    115, 89, ·, -2
72. Cc1ccc2oc(C(=O)Nc3ccc(S(=O)(=O)N4CCCCC4C)cc3)cc(=O)c2c1 (stereo unspecified)
    104, 82, 102, -23
73. Cn1cc(S(=O)(=O)NCc2ccc3c(c2)OCO3)c(C(F)(F)F)n1
    90, 97, 107, 25
74. O=c1[nH]c2ccc(NS(=O)(=O)c3ccc(C4CCCCC4)cc3)cc2[nH]1
    94, 86, 104&100, 10
75. Cc1cccc(C)c1OCc1cc(=O)n2c3c(sc2n1)CCCC3
    106, 88, 103, -19
76. COc1cc(-n2c(=O)c3ccccc3n(CC(=O)NCc3ccc(C)cc3)c2=O)cc(OC)c1OC
    83, 92, 103, ·
77. COc1ccc(-c2nc(CSc3nc4ccccc4n4c(C)nnc34)c(C)o2)cc1OC
    ·, ·, 96, -16
78. CCOC(=O)c1cnc2cc(Cl)c(OC)cc2c1N1CCN(c2cccc(Cl)c2)CC1
    101, 96, 106, -5
79. Cc1ccc(SCC(=O)Nc2ccccc2)cc1
    107, 109, 97, 7
80. CCCN(S(=O)(=O)c1ccc(OCC)cc1)S(=O)(=O)c1cccs1
    117, 96, ·, -8
81. CNS(=O)(=O)c1ccc(NC(=O)c2cc3ccccc3oc2=O)cc1
    102, 111, 102, -30
82. O=C(NCCc1ccc(F)cc1)c1ccc(S(=O)(=O)N2CCCCC2)cc1
    104, 91, ·, -6
83. CCn1nc(C(=O)OCC(=O)c2c[nH]c3ccccc23)c2ccccc2c1=O
    119, 70, ·, -17
84. Cc1ccc(NC(=O)C2CCCN(c3ccc4cc(S(=O)(=O)N5CCCC5)ccc4n3)C2)cc1 (stereo unspecified)
    ·, ·, 108, -2
85. O=C(OCCN1C(=O)c2cccc3c(N4CCCCC4)ccc(c23)C1=O)c1ccc(S(=O)(=O)N2CCCCC2)cc1
    ·, ·, 105, -9
86. Cc1cc(NC(=O)CSc2cn(CC(=O)N3CCC(C)CC3)c3ccccc23)no1
    86, 83, 99&106, -8&-8
87. COc1ccc(NC(=O)CCC2CCCCC2)c(OC)c1
    94, 89, 96, -4
88. COc1ccc(OCc2nn3c(-c4ccoc4C)nnc3s2)cc1
    ·, ·, 114, -4
89. COc1cc(C)c(CN)cc1C(C)C
    76, 96, 100, 4
90. CCOC(=O)c1cnc2ccc(OC(F)(F)F)cc2c1Nc1ccccc1C(=O)O
    94, 85, 104, -46
91. Cc1ccc(N2CC(c3nnc(NC(=O)c4c(-c5ccccc5)noc4C)s3)CC2=O)cc1C (stereo unspecified)
    ·, ·, 101, -17
92. Cc1ccc(CCNC(=O)c2ccc3c(c2)N(Cc2ccc(F)cc2)CCS3)cc1
    114, 93, 106, 5
93. Cc1cc(C)cc(OCc2cc(=O)n3c4c(sc3n2)CCCC4)c1
    108, 89, 99, -37

The order is random. Share with any hit: about 0.83%.
